# Assay outcomes deposited in PubChem by several laboratories.
# Ecoli growth = E. coli growth inhibition, primary screen, OD600. Escherichia coli growth, 23 h; hits give low values. OD600 absorbance (concentration not given with the values). 330,000 compounds, 0.21% hits. AID 1053175, 2014;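 active = OD600 absorbance below the run mean of sample wells minus 3.6 SD, in any replicate, cut at about 0.56 in these data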;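 note: stock transfer was 300 nL into about 60 µL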
# LANA-H2A inh = blockers of LANA interaction with H2A/H2B – biochemical, FP readout, HTS, primary screen; cell-free LANA-H2A/H2B peptide, fluorescence polarization; 320,000 compounds, 0.6% hits; inhibition, % (no concentration beside the values); in the data active = inhibition mostly above about 10%, no sharp cut-off; inactive = mostly below about 6.7%;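 note: stock transfer was 7.5 nL into about 10 µL; 0% = median of vehicle wells and 100% = median of positive control wells; one replicate is shown; the record names a cut of 25% in any replicate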
# Bfl-1 A1 inh = caspase 3/7 activation in MEF A1-2A-BIM cells, primary screen, A1 inhibitor project, cell-based, luminescence, HTS; Caspase-Glo 3/7 luminescence, 3 h; percent of clofoctol response, vehicle zero; caspase activation, % (concentration not given with the values); 330,000 compounds, 0.066% hits;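 active = over half of replicate activation scores above 10%, or exactly half above 10 with the replicate mean above 10; inconclusive = replicate mean below 10 yet half the replicates above 10; inactive = over half of replicates below 10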;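 note: wells of about 30 µL received 50 nL stock; many hits fall short of the cut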
# UCH37 inh = inhibitors of human UCH37 deubiquitinase, primary screen, biochemical, Ub-AMC cleavage, fluorescence. 330,000 compounds, 0.33% hits. Ubiquitin carboxyl-terminal hydrolase isozyme L5 (Homo sapiens), Q9Y5K5. purified proteasome/UCH37. AID 588478, 2011. inhibition, % (no concentration beside the values);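 active = mean of two replicates above 20%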;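 note: 0% = compound-free wells with enzyme and 100% = wells lacking proteasome; stock transfer was 100 nL into about 20 µL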
#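 Material: Human UCH37 enzyme supplied as purified proteasome complex | Schedule: 30 min preincubation with enzyme, 25 min cleavage at room temperature | Detection: AMC fluorescence 355/460 nm | Measure: % inhibition of Ub-AMC cleavage fluorescence | Controls: Wells without proteasome as full block, compound-free enzyme plus substrate as uninhibited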
# B2AR ag = beta2AR agonists driving receptor internalization, primary screen, cell-based, FAP fluorogen, flow cytometry. AID 504454, 2011. response, % (concentration not given with the values). Beta-2 adrenergic receptor (Homo sapiens), P07550. 340,000 compounds, 0.43% hits. Am2.2-beta2AR cells; reference of the scale not given here;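 active = response above a set limit, near 3 SD of response in nonfluorescent compounds, cut at about 42% in these data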;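 note: stock transfer was 100 nL into about 11 µL; a reference agonist was the positive control; negative values mostly stem from fluorescent compounds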
# Target sequence (P07550 whole entry, looked up): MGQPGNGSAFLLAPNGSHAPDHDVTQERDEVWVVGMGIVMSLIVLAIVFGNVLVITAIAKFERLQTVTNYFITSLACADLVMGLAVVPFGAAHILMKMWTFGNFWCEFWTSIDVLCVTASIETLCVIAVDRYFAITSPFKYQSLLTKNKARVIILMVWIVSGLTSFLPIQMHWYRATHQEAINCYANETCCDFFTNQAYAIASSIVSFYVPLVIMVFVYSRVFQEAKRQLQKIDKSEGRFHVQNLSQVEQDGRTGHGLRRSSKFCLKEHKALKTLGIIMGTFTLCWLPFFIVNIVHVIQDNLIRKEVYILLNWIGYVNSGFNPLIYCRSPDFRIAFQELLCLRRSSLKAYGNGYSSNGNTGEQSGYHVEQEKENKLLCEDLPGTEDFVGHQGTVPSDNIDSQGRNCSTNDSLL
# HNF4A DNA FP = change in binding of human HNF4A to DNA, primary screen, biochemical, fluorescence polarization, FITC-DNA | 1 h | 360,000 compounds, 0.3% hits | activity change, % at 10 µM; in the data active = activity change above about 30%, passing the limit was not always enough;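 note: controls were the assay level and a saturating level of protein; the project sought stronger binding though the title names inhibitors; some compounds called inactive have numbers as strong as hits; positive values seem to mean higher polarization but the record does not say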
# Target sequence (P41235 whole entry, looked up): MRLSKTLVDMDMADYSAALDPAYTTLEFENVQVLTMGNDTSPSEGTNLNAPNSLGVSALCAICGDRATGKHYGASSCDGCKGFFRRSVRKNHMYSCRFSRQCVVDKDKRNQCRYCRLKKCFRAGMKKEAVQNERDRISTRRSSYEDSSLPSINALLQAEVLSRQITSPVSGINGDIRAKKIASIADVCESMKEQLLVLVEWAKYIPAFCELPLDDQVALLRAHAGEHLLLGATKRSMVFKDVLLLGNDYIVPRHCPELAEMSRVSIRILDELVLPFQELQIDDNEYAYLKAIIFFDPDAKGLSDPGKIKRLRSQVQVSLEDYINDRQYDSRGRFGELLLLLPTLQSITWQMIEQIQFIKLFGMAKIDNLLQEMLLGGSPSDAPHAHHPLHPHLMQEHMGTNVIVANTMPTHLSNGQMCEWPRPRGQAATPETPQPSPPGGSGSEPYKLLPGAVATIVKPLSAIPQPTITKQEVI
# Vif A3G = inhibitors of Vif binding to APOBEC3G peptide, primary screen, biochemical, TR-FRET, GST-Vif 1-94, biotin-A3G peptide, dose response retest (AID 1117319); Virion infectivity factor (Human immunodeficiency virus type 1 group M subtype B (isolate …; inhibition, %, or IC50 in µM where a hit was titrated; 260,000 compounds, 0.57% hits; TR-FRET GST-Vif / biotin-A3G peptide binding; higher % means a stronger effect; test concentration not given here; strong numbers were not always called active;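 active = above the screen mean plus three standard deviations and confirmed in dose response; inconclusive = results disagree or hit not tested in dose response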;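 note: Vif residues 1-94 fused to GST binding biotinylated APOBEC3G peptide 110-148; 0% = full assay without inhibitor and 100% = GST in place of GST-Vif; retest series ran down from 100 µM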
# * hit, by the source's call; u = inconclusive; x = not tested or not shown.
SMILES,Ecoli growth,LANA-H2A inh,Bfl-1 A1 inh,UCH37 inh,B2AR ag,HNF4A DNA FP,Vif A3G
CCOC(=O)c1c(C)nc2c(c1-c1ccc(OC)cc1)C(=O)CC(C)(C)C2,0.74,1.3,0.0,0.7,-10,-0.2,21%
C[C@]12c3[nH]c4cc(-c5ccco5)ccc4c3CCN1C(=O)[C@@H](CC(=O)NCCc1ccccn1)C[C@@H]2C(=O)N1CCCCC1,0.68,x,x,-18,3,-3.2,x
COc1cc(OC)c2c(-c3cccc(-c4ccc(C#N)cc4)c3)cc(=O)oc2c1,0.72,x,x,-14,17,2.8,1%
Cc1nc(C(=O)Nc2ccc(Cl)cc2)sc1C1(C)CC(c2cccc([N+](=O)[O-])c2)=NO1 (stereo unspecified),0.7,6.1,-0.5,1.7,-10,2.1,x
NC(=O)c1ccc(N2CCCCC2)c(N2C(=O)CCC2=O)c1,0.73,-1.3,0.4,-0.4,4,0.6,22%
O=C(CSCc1nc2c(nnn2Cc2ccc(F)cc2)c(=O)[nH]1)Nc1cccc(C(F)(F)F)c1,0.69,-2.2,0.6,1.3,5,3.6,1%
COc1ccc(NC(=O)c2cc(S(=O)(=O)N3CCc4ccccc43)cn2C)cc1OC,0.74,-7.9,0.4,1.0,25,-1.1,x
O=C(CSc1ccc(-c2ccccc2)nn1)NC1CCCC1,0.66,-3.9,-2.0,0.4,-13,-1.7,-2%
CCOC(=O)c1oc2cc(O)c(CC)cc2c(=O)c1-c1ccc2c(c1)OCCO2,0.7,-1.3,1.2,11,-12,-0.1,-3%
Cn1c(N)cc(=O)n(C)c1=S,0.61,x,x,-0.2,-4,2.3,-7%
COc1cccc(NC(=O)N2CCC(NC(=O)C(Cc3cccc(C)c3)NC(C)=O)CC2)c1 (stereo unspecified),x,7.5,0.1,x,-1,3.6,-8%
CC1CCCCN1c1cc(C#N)c(C#N)cc1[N+](=O)[O-] (stereo unspecified),0.61,4.3,0.0,3.0,-5,-0.6,-5%
Cn1nnnc1SCC(=O)N1CCOCC1,0.68,3.5,-0.2,1.1,5,3.5,x
CC(C)CN(Cc1cc(=O)oc2cc(-c3ccccc3)c(O)cc12)CC(C)C,0.69,-7.2,-0.7,-12,6,0.4,-3%
COc1ccc(-c2cccc(NS(=O)(=O)c3ccccc3[N+](=O)[O-])c2)nn1,0.6,4.0,-1.7,5.0,4,1.3,3%
Cc1cc(=O)[nH]c(SCc2nc3ccccc3n2Cc2ccccc2)n1,0.71,-6.0,1.3,-5.8,2,7.3,3%
Cc1ccc(-c2nc(NC(=O)c3ccc(S(=O)(=O)N(CCC#N)CCC#N)cc3)sc2-c2ccccc2)cc1,0.69,x,0.7,-40,3,-2.0,-45%
O=C(O)c1ccc(/C=N/Nc2ccc(C(F)(F)F)cn2)cc1,x,x,x,x,0,2.3,-4%
Cc1ccc(S(=O)(=O)NCC(c2ccco2)N2CCc3ccccc32)cc1 (stereo unspecified),0.63,3.7,-1.0,7.5,2,-1.3,-9%
COc1ccc(CCn2c(=N)c(S(=O)(=O)c3ccc(C)cc3)cc3c(=O)n4ccccc4nc32)cc1,0.75,6.2,0.6,-4.7,10,-1.7,-1%
O=C(CCc1nc2ccccc2c(=O)[nH]1)NNC(=O)c1ccc(Cl)cc1,0.68,-2.8,1.8,-1.3,8,3.7,7%
Cc1ccc(/C=c2\sc3nc(-c4ccccc4Br)nn3c2=O)o1,x,4.0,0.7,x,13,-12,u
Cc1onc(-c2c(F)cccc2Cl)c1C(=O)NCC1COc2ccccc2O1 (stereo unspecified),0.67,2.6,0.0,0.6,-3,0.1,2%
COC(=O)C(Cc1ccc(OC(=O)c2ccccc2Cl)cc1)N1Cc2ccccc2C1=O (stereo unspecified),0.74,1.4,-4.5,2.5,24,-1.5,-1%
COCCn1c(CN2CCN(c3ccc(OC)cc3)CC2)nc2c1c(=O)n(C)c(=O)n2C,0.73,-3.7,0.5,1.9,-3,-3.2,3%
COc1cccc(NC(=O)Cn2cc(C#N)c3ccccc32)c1,0.69,2.2,0.3,-0.2,0,3.2,-16%
S=C(NCc1ccco1)N1CCN(c2nc(-c3ccc(Cl)cc3)cs2)CC1,0.72,-2.8,-1.1,-0.5,6,9.8,2%
CCOCCOC(=O)c1cccc(NC(=O)OCC)c1,0.75,1.0,0.9,3.4,-5,1.7,u
CCOc1ccccc1NC(=O)CN1C(=O)COc2ccccc21,0.69,2.0,-0.2,0.4,-3,1.5,-5%
O=C(NC1(C(F)(F)F)NC(=O)N(C2CCCCC2)C1=O)c1cccs1 (stereo unspecified),0.66,-13,0.3,2.9,8,2.0,3%
CCN(CC)S(=O)(=O)c1ccc(C(=O)NCc2n[nH]c(=S)n2-c2ccc(Cl)c(Cl)c2)cc1,0.66,-0.1,-1.5,2.1,-3,-2.8,2%
CCN1CCN(CC(=O)Nc2ccc(C)c(Br)c2)CC1,0.66,-2.0,1.2,6.7,0,-0.8,-4%
CN(C)/C=C(\C=O)c1onc(-c2ccccc2Cl)c1C#N,0.69,0.3,0.3,4.6,-4,3.4,3%
COc1cccc(N(C(=O)C2CSC(=O)C2)C(C(=O)NC(C)(C)C)c2ccncc2)c1 (stereo unspecified),0.65,-2.5,-0.1,-0.3,5,2.6,4%
CCOc1ccc(S(=O)(=O)N2CCC(C(=O)NC3CC3)CC2)cc1C,0.67,-1.0,-0.3,-1.2,-3,1.6,-2%
C=CC[C@@H](CC(=O)N[C@H](CO)Cc1ccccc1)C(=O)NC[C@H](OC(=O)[C@@H](CC=C)Cc1ccc(F)cc1)c1ccccc1,x,7.9,-0.3,2.4,-2,-3.3,x
CNC(=S)N/N=C/c1cccc(OCc2ccccc2F)c1,x,-4.7,-5.6,x,3,-2.5,x
Cc1cccc(Cl)c1OCCCn1ccnc1,0.62,-0.3,0.2,0.8,-1,0.1,x
Cc1c(CN2CCCCC2)c(O)n(CCO)c(=O)c1C#N,0.71,4.9,0.9,3.5,11,-3.4,x
Cc1ccc(NC(=O)COc2ccc3c(c2)CCC3)nc1,0.63,-2.8,-0.3,3.4,3,5.4,x
C=CCNc1nc(C(=O)OCC(=O)Nc2ccccc2C(F)(F)F)cs1,0.7,0.6,-0.3,2.4,-4,0.4,5%
CC(=O)NC(CC(=O)OCC(=O)N1CCN(S(=O)(=O)c2ccc(Cl)cc2)CC1)c1ccccc1 (stereo unspecified),0.71,-7.9,-0.1,-2.2,-2,2.4,0%
C=CCn1c(=O)c2ccccc2n2c(SCC(N)=O)nnc12,0.75,4.4,0.1,0.9,2,2.7,0%
CN(CC(=O)Nc1ccc(OC(F)(F)F)cc1)C(=O)c1ccc(N2CCCC2=O)cc1,0.66,-4.1,-0.9,2.5,-3,0.9,-4%
CN1CCN(/C(=N\S(=O)(=O)c2ccc(F)cc2)c2ccccc2)CC1,x,3.9,0.3,x,-16,-2.9,-5%
COc1ccc(-c2cc(C(=O)Nc3ccccc3F)on2)cc1,0.68,2.6,-8.4,-0.8,-5,2.1,-5%
O=C(C1CCC(CNc2nc(=S)[nH]c3ccccc23)CC1)N1CCN(c2ccccn2)CC1 (stereo unspecified),0.69,4.4,0.4,0.8,22,5.9,-7%
COc1ccc(-c2nnc(NC(=O)CSc3ccc(C)cc3)s2)cc1OC,0.69,-3.7,0.5,-52,3,-2.4,-21%

# One compound at a time (already shown). Values in the order: Ecoli growth, LANA-H2A inh, Bfl-1 A1 inh, UCH37 inh, B2AR ag, HNF4A DNA FP, Vif A3G
# Record of `C=CCNc1nc(C(=O)OCC(=O)Nc2ccccc2C(F)(F)F)cs1` = 0.7, 0.6, -0.3, 2.4, -4, 0.4, 5%
# Record of `CN1CCN(/C(=N\S(=O)(=O)c2ccc(F)cc2)c2ccccc2)CC1` = x, 3.9, 0.3, x, -16, -2.9, -5%

# New compounds follow
SMILES,Ecoli growth,LANA-H2A inh,Bfl-1 A1 inh,UCH37 inh,B2AR ag,HNF4A DNA FP,Vif A3G
Cc1onc(-c2ccccc2)c1C(=O)Nc1cccc(S(=O)(=O)N2CCCCC2)c1,0.67,5.2,0.1,4.8,0,3.1,-8%
CC1CCC(NC(=O)C2CCC(CNc3c(N4CCCCC4)c(=O)c3=O)CC2)CC1 (stereo unspecified),0.66,-1.8,0.7,5.1,-1,1.7,u
O=C(Nc1ccnn1C1CCN(Cc2ccccc2F)CC1)C1CCCC1,0.71,1.2,0.2,1.7,-5,-0.2,x
C[N+]1(CC(=O)OCCCc2ccccc2)CCCC1,0.68,-3.1,0.9,7.6,1,0.3,x
O=C1CN(C(=O)COC(=O)c2ccc([N+](=O)[O-])o2)c2ccccc2N1,0.66,-0.6,-1.7,20,12,-3.1,x
O=[N+]([O-])c1ccc(N2CCN(Cc3ccc(Br)o3)CC2)cc1,0.67,7.3,1.4,3.3,5,-0.1,x
COc1cc(NC(=O)NNC(=O)c2cc3occc3n2C)cc(OC)c1OC,x,-2.5,-0.1,x,0,0.9,x
Cn1cnnc1SCC(=O)N1N=C2/C(=C/c3ccco3)CCCC2C1c1ccco1 (stereo unspecified),0.74,1.9,-0.2,5.9,0,-3.4,25%
Cc1ccc(NC(=O)c2ccc(CSc3ccccn3)cc2)c(O)c1,0.62,2.1,0.7,1.9,-4,-1.0,-7%
COc1ccccc1CN1C(=O)C2CC=CCC2C1=O (stereo unspecified),0.65,0.0,0.3,-0.7,-3,-2.6,-1%
CN(C)CCCNc1oc(/C=C/c2cccs2)nc1S(=O)(=O)c1ccccc1,0.61,0.6,-0.5,-137,20,5.7,x
CCN(CC)S(=O)(=O)c1cccc(C(=O)N[C@H](C(=O)OCC(N)=O)C(C)C)c1,0.75,1.2,0.3,0.8,1,-5.5,19%
Nc1c(C(O)(C(F)(F)F)C(F)(F)F)ccc2ccccc12,0.62,x,x,-13,-18,-7.1,2%
Cc1n[nH]c(C)c1CCC(=O)N/N=C/c1cccc([N+](=O)[O-])c1,x,-0.4,0.6,x,-1,3.1,-2%
Cc1onc(-c2c(F)cccc2Cl)c1-c1nnc(-c2cccc3ccccc23)o1,0.62,0.1,0.3,-28,-6,5.4,3%
COc1cccc(-c2nn3c(-c4cc(C)[nH]n4)nnc3s2)c1,0.7,-0.1,0.8,1.1,-1,-1.5,-65%
Cc1nc2ccccc2n1CCc1nc2c3ccccc3nc(SCC#N)n2n1,0.7,2.4,0.4,1.3,x,x,4%
CCC(C)c1ccc(NC(=O)CSc2nncn2N)cc1 (stereo unspecified),0.72,-3.0,0.1,-2.8,-2,0.5,7%
CCn1c(SCC(=O)N/N=C/c2c[nH]c3ccccc23)nnc1-c1ccc(C)cc1,x,0.0,-0.8,x,-8,2.3,29%
COc1ccccc1C(c1c(O)nc(SC)[nH]c1=O)c1c(O)nc(SC)[nH]c1=O,0.65,2.3,1.4,-2.2,-1,1.3,x

# 3 entries out of the list, arranged by number of heavy atoms, low to high:
SMILES,Ecoli growth,LANA-H2A inh,Bfl-1 A1 inh,UCH37 inh,B2AR ag,HNF4A DNA FP,Vif A3G
CCC(C)c1ccc(NC(=O)CSc2nncn2N)cc1 (stereo unspecified),0.72,-3.0,0.1,-2.8,-2,0.5,7%
COc1cccc(-c2nn3c(-c4cc(C)[nH]n4)nnc3s2)c1,0.7,-0.1,0.8,1.1,-1,-1.5,-65%
CCn1c(SCC(=O)N/N=C/c2c[nH]c3ccccc23)nnc1-c1ccc(C)cc1,x,0.0,-0.8,x,-8,2.3,29%
